# Compound activity: PubChem BioAssay, National Center for Advancing Translational Sciences (NCATS)
# Sfp inh: qHTS Assay for Inhibitors of Bacillus subtilis Sfp phosphopantetheinyl transferase (PPTase); 4'-phosphopantetheinyl transferase ffp (Bacillus subtilis), Q9F4F7; Biochemical Sfp PPTase activity, qHTS; Potency, µM, inactives show max response, negative = inhibition, hits mostly inhibitors; actives 3.5% (n = 310,000); active = well fitted inhibition curve with a large enough effect; inconclusive = small, poorly fitted or top-dose-only effect, or another doubt; inactive = no such curve, though single readings can be large or run the other way;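 note: the enzyme is Sfp with the accession as filed and its product quenches rhodamine fluorescence; potency is the fitted concentration of half-maximal effect; 0% = enzyme reaction without inhibitor and -100% = no enzyme wells; top concentration of the series not given in the record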
#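 With Hepes-Na pH 7.6 buffer containing 10 mM MgCl2, Sfp (15 nM) modified BHQ-2-YbbR (12.5 uM) using rhodamine-CoA (5 uM). Two reads 30 minutes apart at 525/598 nm yielded each well's rate.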
# ClpP mod: qHTS Assay for Activators of ClpP. ATP-dependent Clp protease proteolytic subunit (Bacillus subtilis (strain 168)), P80244. AID 651965, 2013. actives 1.9% (n = 340,000). Potency, µM (titrated, usually from 57.5 µM), inactives show top-dose activity change, negative = active. purified B. subtilis ClpP, FRET peptide cleavage, 20 min; active = well fitted falling curve with a large enough effect; inconclusive = small, poorly fitted or top-dose-only effect; inactive = no such curve, though single readings can be large or run the other way; note: potency is the fitted concentration of half-maximal effect; the source files actives as falling curves though it sought activators and does not explain the sign; nearly all actives have a fitted effect of over 65% in size; many hits overshoot -100%
# Target sequence (P80244 whole entry, looked up): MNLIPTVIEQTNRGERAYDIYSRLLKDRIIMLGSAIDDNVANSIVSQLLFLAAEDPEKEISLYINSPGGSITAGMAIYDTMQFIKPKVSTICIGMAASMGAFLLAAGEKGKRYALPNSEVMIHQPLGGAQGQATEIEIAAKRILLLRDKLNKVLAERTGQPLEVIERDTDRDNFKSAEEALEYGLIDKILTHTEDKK
#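 ClpP 10 microg/mL final, pH 8 Tris/KCl buffer with BSA, glycerol, Tween-20; compound pinned in; FRET-FV substrate; RT 20 min; Ex320/Em430; ΔFRET vs ADEP 5.8 microM, DMSO, no enzyme.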
# TRPV1 PAM: HTS Assay for Compounds that Act as Potentiators of the Vanilloid Receptor 1; Transient receptor potential cation channel subfamily V member 1 (Homo sapiens), Q8NER1; TRPV1-expressing cells, Fluo-8 calcium influx, capsaicin EC20 potentiation; host cell line not named in the record; control for the full effect not named in the record; potentiation, % at 8.33 µM; actives 0.02% (n = 320,000); AID 540277, 2011; active means potentiation above 80%; inconclusive means 30% to 80%; inactive means below 30%; note: 0% is about no effect
#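 Cells expressing TRPV1 were dye-loaded with Fluo-8 and read kinetically: 10 s baseline, 3 min after compound (agonist portion), then 2 min after EC20 capsaicin (allosteric enhancer portion). Calcium-bound dye fluorescence at 480/520 nm.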
# Menin-MLL FL inh: qHTS Assay for Inhibitors Targeting the Menin-MLL Interaction in MLL Related Leukemias: Competition With Fluorescein Labeled MLL-derived Peptide. Fluorescence polarization, fluorescein-MLL peptide displacement from menin. FP activity change, % at 61.4 µM. 290,000 tested, under 10 active. AID 1766, 2009; inconclusive = falling polarisation curve, or a change in total fluorescence; inactive = total fluorescence flat and polarisation flat or rising; no compound was filed as active; the % refers to the polarisation; negative = inhibition;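 note: % of control where 0% means no effect; inhibitors lower the polarisation; unlabelled MLL peptide was the positive control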
# TRPML1 ag: qHTS for Agonists of the Human Mucolipin Transient Receptor Potential 1 (TRPML1) | AID 624414, 2012 | activation, % (concentration not given with the values) | TRPML1-expressing cells, Ca2+ dye fluorescence, FDSS; host cell line not named in the record; reference of the full effect not given here | Mucolipin-1 (Homo sapiens), Q9GZU1 | actives 0.12% (n = 410,000); in the data active = activation above about 50%; inconclusive = about 30% to 50%; inactive = below about 30%; note: 0% is about no effect; the text of the record puts the active cut at 80%
# Target sequence (Q9GZU1 whole entry, looked up): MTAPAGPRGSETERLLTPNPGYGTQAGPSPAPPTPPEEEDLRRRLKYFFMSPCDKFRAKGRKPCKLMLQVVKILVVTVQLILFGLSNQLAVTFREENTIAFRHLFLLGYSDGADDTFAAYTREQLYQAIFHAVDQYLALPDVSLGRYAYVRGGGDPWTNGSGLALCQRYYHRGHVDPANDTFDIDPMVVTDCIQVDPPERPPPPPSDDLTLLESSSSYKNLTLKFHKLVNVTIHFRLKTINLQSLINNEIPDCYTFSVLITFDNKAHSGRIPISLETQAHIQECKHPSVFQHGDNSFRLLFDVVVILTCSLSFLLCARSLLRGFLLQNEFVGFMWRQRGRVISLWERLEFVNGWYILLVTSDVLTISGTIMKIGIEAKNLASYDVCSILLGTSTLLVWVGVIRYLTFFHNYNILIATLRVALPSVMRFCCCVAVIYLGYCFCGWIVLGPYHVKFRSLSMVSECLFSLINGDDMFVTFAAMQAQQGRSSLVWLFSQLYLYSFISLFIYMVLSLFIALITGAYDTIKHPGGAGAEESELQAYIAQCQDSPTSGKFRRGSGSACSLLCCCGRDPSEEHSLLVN
#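 Kinetic FDSS Ca2+ read in Tet-induced TRPML1-DL cells (ABD Ca8 dye plus quencher, 45-90 min RT loading): baseline, then compound, then 110 s agonist window; EC80 agonist 54-4 at 4uM final added afterwards for a 110 s antagonist window.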
# TRPML1 blocker: qHTS for Inhibitors of the Human Mucolipin Transient Receptor Potential 1 (TRPML1). activity change, negative = inhibition, % (test concentration not listed). Mucolipin-1 (Homo sapiens), Q9GZU1. actives 0.02% (n = 390,000). TRPML1-inducible cells, Ca2+ dye fluorescence, FDSS; active compounds read low; inhibition of EC80 agonist-evoked calcium signal. AID 624415, 2012; in the data active means activity change below about -50%; inconclusive means about -30% to -50%; inactive means above about -30%;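 note: stimulus is agonist 54-4 at its EC80 concentration; % is set by controls: 0 for no effect and ±100 for the full control effect; compound concentration not given in the record; the text of the record puts the active cut at -80%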
#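 TRPML1-DL cells, Tet-induced overnight (~16 h, 37 °C) at 1,500 cells/well, were loaded with Ca8 no-wash dye plus quencher for 45-90 min at room temperature. Compounds were pinned during FDSS kinetic reading; agonist 54-4 at EC80 (4 uM final) then added.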
# PINK1 expr mod: A Quantitative High throughput Screen to Identify Chemical Modulators of PINK1 Expression; PINK1 immunofluorescence, high-content cytometry, 24 h; Potency, µM (doses to about 76.6 µM), without a hit: at the top dose activation (PINK1 increase), actives largely listed as activators; actives 0.2% (n = 410,000); active = well fitted activation curve with a large enough effect; inconclusive = small, poorly fitted or top-dose-only effect; inactive = flat fitted curve, though single readings scatter; cell line not stated here;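 note: potency is the fitted concentration of half-maximal effect; % of control where 0% means no effect; nearly all actives have a fitted effect of over 65% in size; a mitochondrial uncoupler was the plate control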
#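 PINK1 protein level read as immunofluorescence by microplate cytometer in a fixed, stained stable cell line after 24 h exposure to five compound concentrations, with CCCP as control.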
# * marks the source's active call; other numbers are inactive results; ? = inconclusive; nt = not tested or not shown; [ ] = remark or other dose.
SMILES,Sfp inh,ClpP mod,TRPV1 PAM,Menin-MLL FL inh,TRPML1 ag,TRPML1 blocker,PINK1 expr mod
Cc1cc(NC(=O)Nc2cc(F)ccc2F)no1,-7%,1.9%,12,1.1,-0.3,7,0.8%
Cc1ccc(S(=O)(=O)NCC(=O)OCC(=O)c2cc(C)n(-c3ccccc3)c2C)cc1,-18%,1.8%,2,1.7,-0.2,2,-0.4%
COc1ccc(N2CCN(C(=O)COC(=O)/C=C/c3ccc(OC(F)F)cc3)CC2)cc1,nt,-2.6%,-12,nt,0.1,20,-0.4%
O=C(Nc1ccc(C(=O)N2CCOCC2)cc1)C1CC1,nt,1.5%,nt,nt,-0.6,-4,-0.7%
COc1cccc(Nc2nc3ccccc3c3nncn23)c1,nt,-3.8%,nt,nt,0.8,-7,-0.7%
COC(=O)c1ccc2[nH]c(C)cc(=O)c2c1,17%,28µM*,2,0.1,1.3,6,-0.4%
CCOC(=O)N1CCN(C(=O)CN(c2ccccc2OC)S(=O)(=O)c2ccc(OC)cc2)CC1,8%,nt,-5,3.8,-0.1,39,0.1%
CN(C)c1ccc(S(=O)(=O)N2CCCCC2)cc1NC(=O)CCNC(=O)c1ccco1,nt,0.6%,2,nt,-0.3,-10,3.2%
Cc1cc(-c2nnc(CCC(=O)NCCc3ccccc3F)o2)no1,2%,-1.1%,-4,-4.3,1.2,-12,-3.5%
COc1cc(CN2CCN(c3cccc(C)c3C)CC2)cc([N+](=O)[O-])c1O,-9%,nt,-7,-2.6,-1.0,-3,0.1%
CCN(c1ccc(NC(=O)CSCc2c(C)noc2C)cc1)C(C)C,nt,0.4%,-18,nt,-0.5,6,0.3%
Cc1ccc(S(=O)(=O)CC(=O)Nc2c(C)n(C)n(-c3ccccc3)c2=O)cc1,8%,-3.7%,4,-19,0.0,-1,-0.1%
COc1ccc(C(C(=O)NC2CCCCC2)N(Cc2cccs2)C(=O)Cc2c[nH]c3ccccc23)cc1OC (stereo not drawn),11%,3.5%,4,1.0,0.0,2,11%[38.3 µM]
O=S(=O)(c1ccc(Cl)cc1)N1CCN(CCc2ccccc2)CC1,5%,nt,-32,0.0,0.5,-17,-0.8%
Cn1c(=O)cc(SCC(=O)N2CCCC2)c2ccc(Cl)cc21,10%,-26%,-18,0.1,0.0,6,2.3%
O=C(O)C1CCN(S(=O)(=O)N2CCOCC2)CC1,30%,-1.1%,1,3.7,0.3,3,3.7%[38.3 µM]
Cc1noc(C)c1C(=O)N1CCC[C@@]2(CCN(C(=O)Nc3cccc(F)c3)C2)C1,18%,nt,nt,-3.9,nt,nt,-1.2%
CCOc1ccc(NC(=O)N2CC3CCCN3c3ccccc32)cc1 (stereo not drawn),nt,-4.1%,nt,nt,-0.5,-2,1.3%
O=C(NCCN1CCOCC1)C1CCN(c2nc3ccccc3o2)CC1,19%,-1.5%,-9,-2.5,0.9,-1,-1.3%[38.3 µM]
CCCCCC(=O)OCCc1c(C)nc2nc[nH]n2c1=O,13%,nt,4,0.4,0.0,-6,0.1%
COCCOC(=O)C1=C(C)NC(=O)NC1c1ccc(Cl)cc1 (stereo not drawn),12%,2.0%,25,-1.8,-0.1,-9,nt
COc1ccc2c(c1OC)OCC2C (stereo not drawn),nt,-5.6%,nt,nt,1.2,5,14%
CC(C)CCNC(=O)C1CCC(=O)N1CCc1ccccc1 (stereo not drawn),7%,nt,14,4.2,-0.5,-16,0.2%
O=C(/C(=C(\O)c1ccccc1)c1ncc[nH]1)c1ccccc1,25%,-1.8%,3,-1.4,-0.6,4,0.6%
COc1cccc(C(NC(C)=O)c2nc(-c3cccs3)cs2)c1 (stereo not drawn),nt,-0.1%,nt,nt,0.1,nt,0.3%
CCN1CCN(C(=S)NCCc2ccccc2)CC1,-26%,-1.2%,-6,-0.7,0.3,-1,-0.3%
COc1cccc(C(NC(C)=O)c2nc(-c3ccc4ccccc4c3)cs2)c1 (stereo not drawn),nt,-6.6%,nt,nt,0.3,nt,4.3%
CCOC(=O)c1c(-c2ccccc2)csc1NC(=O)CSc1nc(C)cc(C)n1,6%,-7.1%,12,2.0,0.0,-4,0.9%
O=C(Oc1ccc(-c2csnn2)cc1)C1CC1,0%,nt,-4,-1.0,-0.8,-2,-0.6%
CC(=O)c1cccc(NC2c3ccccc3C(=O)N2Cc2ccco2)c1 (stereo not drawn),6%,0.7%,-4,-1.1,0.5,7,-1.5%
COc1cc(OC)c(C=Cc2ccncn2)c(OC)c1,nt,-5.1%,nt,nt,-0.6,13,0.8%
NS(=O)(=O)c1ccc(CNC(=S)NCc2ccc(Cl)cc2)cc1,-1%,-2.8%,3,12,1.0,33,-0.7%
O=C(CCCOc1ccccc1)Nc1cc(S(=O)(=O)N2CCOCC2)ccc1N1CCOCC1,nt,1.3%,-15,nt,-0.6,0,4.5%
CC(C)c1cc(=O)n2[nH]c(SCc3ccc(Cl)cc3)nc2n1,3%,0.2%,-5,-1.3,nt,nt,3.0%
Cc1ccc(O)c(C(=O)c2cnc3c(c2)COc2ccc(C)cc2-3)c1,-8%,2.7%,2,3.2,1.5,51,3.2%
O=C(C[C@H]1C[C@H](C(=O)N2CCOCC2)[C@@]2(CCC3CCCC3)c3[nH]c4cc(-c5ccco5)ccc4c3CCN2C1=O)NCCCn1ccnc1,nt,5.1%,nt,nt,1.3,53,9.4%
COc1cccc(NC(=O)CNC(C)CCC(C)C)c1 (stereo not drawn),9%,-1.8%,-13,1.7,-0.7,18,-0.7%
CCOC(=O)c1ccc(NS(C)(=O)=O)cc1,11%,1.6%,-4,3.3,-0.7,5,1.5%
Cc1ccc(N2CC(C(=O)N3CCC(C(=O)NC(C)(C)C)CC3)CC2=O)cc1 (stereo not drawn),1%,nt,3,-0.8,-0.4,11,-3.4%
COc1cc(C=C2C(=O)C=CC2=O)ccc1O,nt,1.2%,nt,nt,0.8,nt,-0.7%
O=C1c2cccc3cccc(c23)C(=O)N1CCN1CCN(CC(O)COc2ccc3ccccc3c2)CC1 (stereo not drawn),25µM*,-6.0%,-1,2.7,-0.1,10,-2.4%
CC(=O)c1sc(C(C)(C)C)cc1NC(=O)c1ccccc1C(=O)O,11%,nt,24,0.2,-0.2,4,-0.4%
CC(C)CN(C(=O)COC(=O)c1cnc(Cl)c(Cl)c1)c1c(N)n(Cc2ccccc2)c(=O)[nH]c1=O,nt,-1.3%,-11,nt,1.5,50,?
CCOC(=O)c1[nH]cnc1C(=O)NC1CCN(C(=O)OC(C)(C)C)CC1,nt,-0.3%,-2,nt,-0.7,10,-1.5%
O/N=C/c1ccc(-c2cc(Cl)ccc2Cl)o1,11%,-0.8%,16,5.3,0.2,-4,0.1%
Cc1cc(C)cc(OCC(=O)N(Cc2cccs2)C2CCS(=O)(=O)C2)c1 (stereo not drawn),-3%,-0.3%,-18,4.7,-0.9,-4,12%[38.3 µM]
CCN(C(=O)COC(=O)c1cccc2ccccc12)c1c(N)n(Cc2ccccc2)c(=O)[nH]c1=O,nt,?,nt,nt,0.5,-13,-0.1%
COC(=O)C(Cc1ccc(O)cc1)N1Cc2ccccc2C1=O (stereo not drawn),14%,-3.4%,0,0.5,0.5,-24,2.5%
Cc1ccc(-n2c(Cn3c(C)nc4ccccc43)n[nH]c2=S)cc1,-21%,-1.2%,-9,-7.9,0.6,27,0.0%
CCN(CC)c1cc2c(cc1F)c(=O)c(S(=O)(=O)c1ccccc1)cn2Cc1ccccc1,nt,22µM*,nt,nt,0.8,1,-0.3%
COC(=O)c1ccccc1NC(=O)c1ccc(-c2ccccc2F)o1,11%,-21%,3,2.1,0.9,-1,nt
CC1(C(=O)NS(=O)(=O)C2CC2)CCCN(C(=O)CSc2ccccc2)C1 (stereo not drawn),nt,1.9%,nt,nt,-0.2,nt,2.5%
CCN(C(=O)COC(=O)c1cccnc1SC)C1CCCCC1,nt,-1.1%,11,nt,0.0,17,-1.4%
CN(C(=O)COc1ccc(-c2nnco2)cc1)C1CCS(=O)(=O)C1 (stereo not drawn),nt,-4.1%,2,nt,0.6,-9,1.1%
CNC(=O)c1nn(-c2ccccc2)ccc1=O,23%,-2.9%,-4,3.6,-0.6,?,7.1%
O=C(COc1ccccc1)NNc1c2ccccc2nc2ccccc12,17%,14%,0,-0.7,1.0,1,-2.4%
CC(=O)c1ccc(NC(=O)CCOc2ccccc2)cc1,nt,-1.2%,nt,nt,-0.8,10,1.1%
CCOc1ccc(C(C(=O)NCC2CCCO2)N(Cc2cccs2)C(=O)c2snc(C(N)=O)c2N)cc1 (stereo not drawn),-2%,nt,4,2.3,0.1,9,0.2%
CCc1cccc(C)c1NC(=O)c1cn2c3c(ccc(Cl)c3c1=O)OC(C)C2 (stereo not drawn),nt,-29%,nt,nt,1.6,-19,-0.2%
CCOC(=O)[C@@H]1[C@H]2COc3cc(OC)ccc3[C@H]2N2C(=O)N(c3cccc(Cl)c3)C(=O)[C@@]12C,13%,-4.6%,-16,0.6,-0.1,-1,0.0%
CC(=O)NCN1CCN(CNC(C)=O)CC1,-1%,25µM*,9,0.4,-0.9,20,-2.2%
Cc1nc(C)c(C(=O)Nc2cccc(C)c2C)s1,8%,nt,-1,-0.8,1.1,-4,3.0%
O=S(=O)(c1ccccc1)c1nc(-c2ccc(F)cc2)oc1NCC1CCCO1 (stereo not drawn),nt,-0.4%,-20,nt,1.5,-14,2.4%
